ClpP mod – qHTS Assay for Activators of ClpP | ATP-dependent Clp protease proteolytic subunit (Bacillus subtilis (strain 168)), P80244 | purified B. subtilis ClpP, FRET peptide cleavage, 20 min | Potency, µM (doses to about 57.5 µM), for the others: at the highest dose activity change, negative = active | 340,000 compounds, 1.9% hits | AID 651965, 2013; active = well fitted falling curve with a large enough effect; inconclusive = small, poorly fitted or top-dose-only effect; inactive = no such curve, though single readings can be large or run the other way; also: potency is read from the fitted curve at half-maximal effect; the source files actives as falling curves though it sought activators and does not explain the sign; nearly all actives have a fitted effect of over 65% in size; many hits overshoot -100%
Target sequence (P80244 whole entry, looked up): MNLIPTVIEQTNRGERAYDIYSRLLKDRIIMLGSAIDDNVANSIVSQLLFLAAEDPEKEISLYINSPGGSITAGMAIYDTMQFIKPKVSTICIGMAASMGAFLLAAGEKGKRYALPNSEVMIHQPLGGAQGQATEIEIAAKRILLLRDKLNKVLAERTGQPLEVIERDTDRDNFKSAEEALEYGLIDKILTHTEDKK
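Purified B. subtilis ClpP, 10 microg/mL final in Tris/HCl pH8 with KCl, BSA, glycerol and Tween-20, cleaved an Abz/nitrotyrosine-quenched decapeptide. Fluorescence (ex 320, em 430) was read at 0 and 20 min at room temperature. Delta was normalized to 5.8 microM ADEP and DMSO/no-enzyme controls.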
Menin MLL FP FL – menin-MLL binding inhibition, fluorescein peptide; Fluorescence polarization, fluorescein-MLL peptide displacement from menin; 290,000 tested, under 10 active; AID 1766; FP activity change, % at 61.4 µM; inconclusive = falling polarisation curve, or a change in total fluorescence; inactive = total fluorescence flat and polarisation flat or rising; no compound was filed as active; the % refers to the polarisation; negative = inhibition;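 also: % of control where 0% means no effect; inhibitors lower the polarisation; unlabelled MLL peptide was the positive control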
PINK1 modulator – PINK1 expression modulation. Potency, µM (titrated, usually from 76.6 µM), for the others: at the highest dose activation (PINK1 increase), hits mostly activators. 410,000 compounds, 0.2% hits. AID 624263. PINK1 immunofluorescence, high-content cytometry, 24 h; active = well fitted activation curve with a large enough effect; inconclusive = small, poorly fitted or top-dose-only effect; inactive = flat fitted curve, though single readings scatter; cell line not stated here;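 also: potency is read from the fitted curve at half-maximal effect; % of control where 0% means no effect; nearly all actives have a fitted effect of over 65% in size; a mitochondrial uncoupler was the plate control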
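Decision-based qHTS: stable cells, 24 h exposure to five compound concentrations, CCCP as control. Fixed cells stained for PINK1 plus nuclear, mitochondrial and cell markers, cytometer read.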
Sfp PPTase inh – blocks B. subtilis Sfp PPTase activity; 310,000 compounds, 3.5% hits; Biochemical Sfp PPTase activity, qHTS; AID 1490; Potency, µM, for the others: max response, negative = inhibition, usual class: inhibitors; Q9F4F7; active = well fitted inhibition curve with a large enough effect; inconclusive = small, poorly fitted or top-dose-only effect, or another doubt; inactive = no such curve, though single readings can be large or run the other way;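 also: the enzyme is Sfp with the accession as filed and its product quenches rhodamine fluorescence; potency is read from the fitted curve at half-maximal effect; 0% = enzyme reaction without inhibitor and -100% = no enzyme wells; top concentration of the series not given in the record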
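With Hepes-Na pH 7.6 buffer containing 10 mM MgCl2, Sfp (15 nM) modified BHQ-2-YbbR (12.5 uM) using rhodamine-CoA (5 uM). Two reads 30 minutes apart at 525/598 nm yielded each well's rate.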
gsp ag – gsp mutant agonism. gsp mutant cells, cAMP HTRF, 30 min; control for the full effect not named in the record. Potency, µM (series often up to 76.9 µM), without a hit: at the highest dose activation (cAMP increase), actives largely listed as activators. 340,000 compounds, 0.13% hits; active = well fitted activation curve with a large enough effect; inconclusive = small, poorly fitted or top-dose-only effect, or another doubt; inactive = no such curve, though single readings can be large or run the other way; cell line not stated here;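 also: phosphodiesterase inhibitor Ro 20-1724 added with compounds to block cAMP breakdown; potency is read from the fitted curve at half-maximal effect; nearly all actives have a fitted effect of over 60% in size; about a fifth of the inactives were tested at one dose only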
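Cells stably selected in G418 were plated at 2000/well, grown 16-24 hr, then given compounds in DMSO with the PDE inhibitor […] (300 uM solution added) for 30 min at 37C; cAMP was read by HTRF.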
D2 ag – agonists of human D2 dopamine receptor (beta-arrestin) | P14416 | DiscoveRx PathHunter D2 beta-arrestin, luminescence, 90 min; 100% = 57 uM dopamine signal | 360,000 compounds, 0.084% hits | activation, % (concentration not given with the values); in the data active = activation above about 40%; inconclusive = about 15% to 40%; inactive = below about 15%; also: the text of the record calls up to 30% inactive
Target sequence (P14416 whole entry, looked up): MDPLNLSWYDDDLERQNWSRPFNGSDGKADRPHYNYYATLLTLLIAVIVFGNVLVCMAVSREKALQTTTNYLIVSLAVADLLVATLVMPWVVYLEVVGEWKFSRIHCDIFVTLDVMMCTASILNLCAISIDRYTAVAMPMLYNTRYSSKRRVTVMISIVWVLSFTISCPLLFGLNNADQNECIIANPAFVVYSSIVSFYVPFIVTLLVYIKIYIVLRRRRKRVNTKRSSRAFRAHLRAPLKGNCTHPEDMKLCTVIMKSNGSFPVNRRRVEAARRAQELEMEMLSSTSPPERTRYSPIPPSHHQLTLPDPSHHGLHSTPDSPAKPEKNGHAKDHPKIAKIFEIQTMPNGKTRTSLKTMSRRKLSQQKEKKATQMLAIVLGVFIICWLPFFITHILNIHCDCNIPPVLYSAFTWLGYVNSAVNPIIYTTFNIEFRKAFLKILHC
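DiscoveRx PathHunter D2 beta-arrestin cells (2,100/well) attached overnight, then compound-stimulated 90 min at 37 C in HBSS/10 mM HEPES/0.1% Tween-20 buffer; beta-galactosidase complementation read by luminescence after 1 h at ambient temperature. Dopamine 57 uM final (EC100) as control.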
gsp antag – antagonizes gsp, the McCune-Albright syndrome mutation | gsp-mutant cells, cAMP HTRF, 30 min; control for the full effect not named in the record | Potency, µM (highest dose often 76.9 µM), for the others: top-dose activity change, negative = inhibition, usual class: inhibitors | 340,000 compounds, 0.4% hits | AID 624288; active = falling curve of any shape with a large fitted effect; inconclusive = falling curve, mostly with a smaller effect; inactive = flat or rising curve; cell line not stated here;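 also: intracellular cAMP measured with PDE inhibitor Ro 20-1724 present during compound exposure; potency is read from the fitted curve at half-maximal effect; % is scaled to controls: 0 for no effect and ±100 for the full control effect; nearly all actives have a fitted effect of over 65% in size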
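Measurement of cellular cAMP by homogeneous time-resolved fluorescence following a 30 min compound exposure at 37C. The PDE inhibitor […] was present throughout; the assay buffer was DPBS with 0.05% BSA and 0.005% Tween 20.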
* marks the source's active call; other numbers are inactive results; ? = inconclusive; . = not tested or not shown; & = joins results of further samples; [ ] = another dose, or the depositor's remark. Hits appear at their usual frequency. About 5.1% of those tested had a hit in this group.

SMILES	ClpP mod	Menin MLL FP FL	PINK1 modulator	Sfp PPTase inh	gsp ag	D2 ag	gsp antag
S=C(NCc1ccc(Cl)c(Cl)c1)Nc1ccc2c(c1)OCO2	-10.0%	-1.3	2.5%	0.9%	0.0%	-1.2	3.0%
O=C(OC(C(=O)NC1CCCC1)c1ccc(F)cc1)c1ccno1 (configuration not stated)	-1.7%	1.7	?	7.3%	-10.3%	-2.2	6.2%
COc1ccc(CCNC(=O)CCNC(=O)c2ccc(Cl)cc2)cc1OC	0.8%	0.3	0.0%	17.2%	-2.9%	-0.7	16.4%
Cc1ccc(OCc2cc(C(=O)N3CCN(C4CCCC4)CC3)no2)cc1C	0.5%	.	1.7%	0.7%	5.9%[15.4 µM]	-6.1	8.9%
CCc1cccc(OCC(=O)Nc2ccccc2N2CCCC2)c1	-1.0%	.	8.2%	.	0.5%	-3.4	-9.4%
CCOC(=O)C(Cc1c(F)cccc1Cl)c1ccno1 (configuration not stated)	1.0%	3.9	0.0%	-1.0%	-42.0%[inhibitor]	2.2	5.3%
O=C(CN1C(=O)NC(c2ccccc2)(c2ccccc2)C1=O)N1CCOCC1	1.7%	.	0.6%	.	4.0%	5.4	2.0%
O=C(C1=C(Nc2ccccc2)c2ccccc2S(=O)(=O)N1)c1ccccc1	0.4%	23.1	2.3%	89.1µM*	-11.3%	-4.1	-15.1%
C/C(=C\c1ccccc1)C(=O)Nc1ccc(Cl)cn1	-0.9%	4.9	1.3%	-0.3%	-19.7%	0.3	-12.7%
CC(C)(C)NC(=O)c1ccc(Cn2cc(C(F)(F)F)ccc2=O)cc1	.	4.2	0.8%	7.6%	?	-0.6	3.6%
CC(=O)OCC1OC(n2cc(F)c(=O)[nH]c2=O)C(OC(C)=O)C1OC(C)=O (configuration not stated)	-1.7%	.	-0.5%	.	24.2%	-3.6	11.1%
CC(C)NC(=O)Cc1ccc(Br)cc1	1.0%	-4.5	-0.4%	8.3%	-32.2%[inhibitor]	-0.7	-1.6%
CN(C)c1cccc2c1c(NC(=O)Nc1ccc(F)cc1F)nn2C	?	3.3	1.2%	?	14.5%	10.5	-13.3%
COCc1ccccc1C1=CC(=O)C[C@H](c2ccc(F)cc2)C1	-1.3%	.	2.3%	.	.	-1.2	0.7%
N=c1c(C(=O)NCc2ccco2)cc2c(=O)n3ccccc3nc2n1CC1CCCO1 (configuration not stated)	28.2µM*	.	-1.0%	.	?	-3.4	-6.6%
Cn1cnnc1SCC(=O)c1cc2ccccc2oc1=O	-7.6%	16.6	.	-75.2%	1.1%	0.3	-8.9%
CCOc1ccccc1NC(=O)Cn1nnc(C(=O)NCc2ccco2)c1N	-2.6%	2.2	0.9%	-29.3%	?	0.4	27.4%
Cc1ccccc1N1C(=O)Cc2ccccc2C1=O	.	-3.2	-1.0%	10.0%	-3.5%	1.1	1.1%
Cc1cc(N2C(=O)c3ccccc3C2=O)n(C)n1	.	0.9	-0.9%	-12.7%	-9.6%	1.0	11.4%
COc1cc(/C=C2\Oc3cc(O)ccc3C2=O)ccc1O	-1.8%	?	-0.1%	-3.6%	28.2µM*	0.4	-7.4%
COc1cc(C(c2nnnn2C2CCCC2)N2CCc3ccccc3C2)ccc1O (configuration not stated)	-4.9%	0.1	-0.4%	17.8µM*	10.5%	-0.2	7.9%
CC(=O)N1c2ccc(S(=O)(=O)N3CCC(C(=O)N4CCCC(C)C4)CC3)cc2CC1C (configuration not stated)	-0.8%	-1.2	-0.8%	10.0%	?	-0.6	?
Cc1nc(NCCCO)c(C#N)c2c1COC(C)(C)C2	?	-2.3	-1.7%	17.2%	2.5%	-1.1	2.3%
O=C(Nc1cccc(-c2nnn(CC(=O)N3CCc4ccccc4C3)n2)c1)C1CCC1	-0.3%	4.0	.	-3.2%	15.9%	-1.0	-8.2%
O=C(CCc1ccccc1)NNC(=S)NC(=O)c1ccc(Cl)cc1	-1.7%	1.1	0.4%[38.3 µM]	50.1µM*	-36.2%[inhibitor]	4.0	-0.9%

Additional structures.
SMILES	ClpP mod	Menin MLL FP FL	PINK1 modulator	Sfp PPTase inh	gsp ag	D2 ag	gsp antag
S=c1nc(-c2sccc2OCc2ccc(Cl)cc2Cl)[nH][nH]1	.	5.2	0.5%	?	8.2%[15.4 µM]	8.8	-18.0%
COc1ccc(OCc2cc(C(=O)NC(C)Cc3cccnc3)no2)c(Cl)c1 (configuration not stated)	0.8%	.	1.3%	7.7%	?	6.4	-16.3%
COC(=O)c1cn(-c2ccc(Cl)cc2)c(=O)c2ccccc12	-4.5%	-0.5	-2.2%	4.5%	-53.4%[inhibitor]	-6.2	-16.4%
CCc1cc2c(=O)c(-c3nc4ccccc4[nH]3)coc2cc1OC(=O)N1CCOCC1	328.8%	-1.1	6.4%[38.3 µM]	14.5%	-56.8%[inhibitor]	-1.3	-13.3%
CN(c1ccc(O)cc1)c1nc(-c2cccnc2)cs1	-2.0%	-2.3	-0.2%	0.2%	-7.6%	4.9	-16.9%
COc1cccc(CN2CCNC(=O)C2CC(=O)NCCn2nc(C)cc2C)c1OC (configuration not stated)	.	-16.0	4.1%	-15.4%	0.4%[15.4 µM]	-2.3	10.0%
O=C(O)Cn1nc(C(F)(F)F)c2c1CCCC2	.	-1.3	0.9%	6.0%	-29.5%[15.4 µM]	-3.3	-0.8%
O=C(CC12CC3CC(CC(C3)C1)C2)N1CCOCC1	0.7%	7.1	1.3%	9.1%	-40.2%[inhibitor]	-0.2	-11.5%
CCCCc1ccc(NC(=O)Nc2cccnc2)cc1	0.9%	-3.6	10.7%	10.0%	0.7%	1.1	1.5%
COc1cc2c(cc1OC)CN(C(=O)CNC(=O)c1ccc(OC(F)F)cc1)CC2	-2.0%	.	-0.6%	14.2%	21.9%[15.4 µM]	-0.4	-6.9%
CCN(CC)CCCN1C=C2C(=O)C(C)(OC(=O)C3CCCC3)C(=O)C(c3ccccc3)=C2C=C1CCCC(=O)OC (configuration not stated)	-0.7%	?	0.0%	5.4%&-24.4%	.	2.5	4.2%
Fc1ccc(OCc2nn3cnnc3s2)cc1	3.3%	2.5	-3.2%	19.9%	13.8%	-0.9	3.2%
C#CCOCC1CN(c2ccccc2)C(=O)O1 (configuration not stated)	-1.1%	.	0.7%	.	-26.0%	-3.8	.
CC[C@H]1c2[nH]c3ccccc3c2C[C@H]2C(=O)N(c3ccc(F)cc3)C(=O)N21	-2.9%	.	2.7%	.	.	-6.6	-8.9%
N/C(=N\OC(=O)CCCc1ccccc1)c1ccccn1	-1.0%	2.3	-1.2%	7.8%	-39.9%[inhibitor]	-1.9	5.8%
COc1ccc(/C=C/C(=O)OCC(=O)NCc2cccs2)cc1OC	?	0.6	0.9%	-3.3%	-0.1%	1.0	11.2%
Cn1c(N)c(S(=O)(=O)N2CCN(c3cccc(Cl)c3)CC2)c(=O)n(C)c1=O	1.8%	-7.5	3.7%	1.3%	-40.0%[inhibitor]	-6.3	-1.4%
CCS(=O)(=O)Nc1ccc(C2=NN(C(=O)c3ccco3)C(c3cccs3)C2)cc1 (configuration not stated)	-7.9%	.	3.2%	-2.9%	2.7%[15.4 µM]	2.0	?
COc1ccccc1NC(=O)CSc1nc2sc3c(c2c(=O)n1-c1ccccc1)CCN(C)C3	4.2%	11.0	-0.7%	-13.2%	10.1%	2.0	-11.3%
CCOc1ccc(C2/C(=C(\O)c3ccc4c(c3)OCCO4)C(=O)C(=O)N2CCCN2CCOCC2)cc1OC (configuration not stated)	.	.	1.5%	-28.8%	-3.4%	0.3	-1.3%
O=C(NCc1ccco1)c1ccc(OCC2CCCO2)cc1 (configuration not stated)	1.9%	2.1	.	-1.0%	0.8%	0.1	3.9%
COc1ccc(-c2cc(C(=O)Nc3cccnc3Cl)no2)cc1	.	6.6	8.5%	13.2%	-8.1%	2.6	15.9%
CCOC(=O)c1ccc(NC(=O)CSc2nnc(CC)o2)cc1	0.0%	.	-0.9%	2.6%	-12.1%	-1.5	2.7%
Cc1cc(C)n(CC(O)COc2ccc(C(C)(C)C)cc2)n1 (configuration not stated)	-0.8%	.	0.5%	-7.0%	16.9%	-3.9	7.1%
COc1ccc(Oc2ncc3nc(-c4cccs4)c(=O)n(CCC#N)c3n2)cc1	.	?	0.3%	9.2%	.	.	.

The listing continues.
SMILES	ClpP mod	Menin MLL FP FL	PINK1 modulator	Sfp PPTase inh	gsp ag	D2 ag	gsp antag
COc1ccc(-c2ccc(CN3C(C(C)C)C(=O)N(Cc4cn(Cc5ccco5)nn4)CCS3(=O)=O)cc2)cc1OC (configuration not stated)	-16.2%	.	-0.4%	.	-47.4%[inhibitor]	-2.5	.
Cc1ccc(S(=O)(=O)N2C(=O)CCC2C(=O)O/N=C(\N)c2ccc([N+](=O)[O-])cc2)cc1 (configuration not stated)	-0.5%	.	3.9%	11.2%	8.4%	4.4	1.6%
Cc1nn(-c2ccc(Cl)cc2)c2[nH]c(CCl)cc(=O)c12	.	0.4	?	13.3%	5.1%[15.4 µM]	2.9	?
O=C(Nc1ccc2oc(-c3cccnc3)nc2c1)c1cccnc1	?	-1.4	0.3%	19.8%	0.4%	0.5	?
CCn1c(SCc2nc3ccccc3s2)nc2cc(S(=O)(=O)N3CCOCC3)ccc21	.	.	2.8%	.	4.5%[15.4 µM]	4.4	-19.1%
COc1ccc(C(=O)NCC(c2ccco2)N2CCCC2)cc1S(=O)(=O)N1CCCCC1C (configuration not stated)	0.0%	.	2.8%	.	-7.3%	1.7	-19.4%
Cc1ccc(NS(=O)(=O)c2ccc(N3C(=O)CCC3=O)cc2)cc1	-0.8%	3.7	1.9%	-4.3%	-33.8%[inhibitor]	0.1	8.9%
CCN1CCN(c2ccc(NC(=O)c3cc(OC)c(OC)c(OC)c3)cc2)CC1	0.7%	-4.7	0.3%	3.1%	22.3%	-0.5	-5.6%
COc1ccc(OC)c(NC(=O)CN2c3cccc4cccc(c34)S2(=O)=O)c1	-26.1%	.	-0.9%	.	5.4%	1.0	-1.5%
CCCC[C@@]1(C2CCCC2)Cc2cc(OCC(=O)O)c(Cl)c(Cl)c2C1=O	0.6%	7.8	0.7%	.	.	-3.5	-21.9%
CCCN(CCC)CCNc1c(N2CCN(C(=O)OCC)CC2)c(=O)c1=O	-1.8%	1.8	0.7%	3.3%	-17.6%	-1.4	13.4%

Compound activity from PubChem.
